TSHR agonist: qHTS Assay for Agonists of the Thyroid Stimulating Hormone Receptor. Thyrotropin receptor (Homo sapiens), P16473. HEK293-CNG-TSHR cells (CNG channel as cAMP sensor), membrane potential dye, cAMP. Potency, µM (top dose mostly 57.1 µM), without a hit: at the highest dose activation, usual class: activators. AID 926, 2007. actives 0.48% (n = 73,000); active = well fitted activation curve of enough size with the parental cells flat; inconclusive = any curve in the parental cells; inactive = parental cells flat and receptor cells flat or falling; also: potency is read from the fitted curve at half-maximal effect; % of control where 0% means no effect; weak receptor curves with flat parental cells got no call and are not listed
Target sequence (P16473 whole entry, looked up): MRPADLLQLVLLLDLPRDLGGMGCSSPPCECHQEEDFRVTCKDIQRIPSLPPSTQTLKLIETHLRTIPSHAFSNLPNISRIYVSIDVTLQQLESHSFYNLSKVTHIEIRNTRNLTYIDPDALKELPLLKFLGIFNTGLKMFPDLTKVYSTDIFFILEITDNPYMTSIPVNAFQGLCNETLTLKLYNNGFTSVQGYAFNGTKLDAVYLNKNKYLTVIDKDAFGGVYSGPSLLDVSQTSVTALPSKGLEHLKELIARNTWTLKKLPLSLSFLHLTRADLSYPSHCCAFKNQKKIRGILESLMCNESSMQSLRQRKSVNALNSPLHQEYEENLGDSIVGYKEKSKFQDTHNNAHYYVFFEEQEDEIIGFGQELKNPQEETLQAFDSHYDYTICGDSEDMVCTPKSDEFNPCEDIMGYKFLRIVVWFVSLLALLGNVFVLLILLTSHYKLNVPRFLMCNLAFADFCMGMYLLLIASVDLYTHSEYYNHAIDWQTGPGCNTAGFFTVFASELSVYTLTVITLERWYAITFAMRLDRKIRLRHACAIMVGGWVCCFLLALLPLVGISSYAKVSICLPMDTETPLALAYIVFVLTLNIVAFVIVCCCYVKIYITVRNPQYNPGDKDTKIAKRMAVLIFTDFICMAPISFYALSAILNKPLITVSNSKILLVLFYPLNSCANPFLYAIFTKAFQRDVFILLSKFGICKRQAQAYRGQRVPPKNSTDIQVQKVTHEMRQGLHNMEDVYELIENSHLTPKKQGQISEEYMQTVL
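HEK 293 cells stably expressing TSHR and a modified CNG channel, with CNG-only parental cells as counterscreen, were preloaded 60 min at room temperature with membrane potential dye containing 100 uM RO 20-1724. Compound exposure was 30 min, and depolarization was read as fluorescence at 590 nm.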
A647 fluor: qHTS Assay for Spectroscopic Profiling in A647 Spectral Region; Compound fluorescence, A647 channel (570/671 nm), Tris buffer; max dye-equivalent concentration, M; 59,000 tested, under 10 active; AID 592, 2007; active means above 1 µM dye equivalent; inconclusive means 0.1 to 1 µM; inactive means 0.1 µM or less;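 also: values scaled relative to a standard on each plate; highest value over a series up to 38 µM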
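Each compound's intrinsic fluorescence at 570 nm excitation and 671 nm emission is measured across its concentration series in 100 mM Tris, pH 8.0, after 15 min at room temperature, and reported relative to an A647 curve.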
Resorufin fluor: qHTS Assay for Spectroscopic Profiling in Resorufin Spectral Region. Compound fluorescence, resorufin region 547/598 nm, buffer; stronger effect = higher value. max dye-equivalent concentration, M. actives 0.04% (n = 59,000). AID 588, 2007; active = above 10 nM dye equivalent; inconclusive = 1 to 10 nM; inactive = 1 nM or less; a few of its hits are not listed in these tables; also: highest value over a series up to 38 µM
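Compounds in 100 mM Tris buffer, pH 8.0, incubated 15 min at room temperature, then read with 547 nm excitation and 598 nm emission filters. Fluorescence was converted to dye-equivalent concentration using an on-plate six-point resorufin standard curve.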
A488 fluor: qHTS Assay for Spectroscopic Profiling in A488 Spectral Region; compound autofluorescence, A488 spectral region, dye equivalency; stronger effect = higher value; max dye equivalency, M; actives 0.1% (n = 59,000); active = above 10 nM dye equivalent; inconclusive = 1 to 10 nM; inactive = 1 nM or less; about half of its hits are not listed in these tables;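 also: highest value over a series up to 38 µM; compound alone in buffer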
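Intrinsic compound fluorescence is measured in 100 mM Tris buffer at pH 8.0 following 15 min incubation at room temperature. Intensities at 480 nm excitation/540 nm emission are calibrated to an on-plate A488 concentration series, giving dye-equivalent concentrations.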
AID923: qHTS Assay for Allosteric/Competitive Inhibitors of Caspase-1: Spectroscopic Profiling in AFC Spectral Region. Potency, µM (top dose mostly 57.5 µM), for the others: at the highest dose fluorescence increase, actives largely listed as activators. AID 923, 2007. actives 1.1% (n = 75,000). compound fluorescence, AFC spectral region (405/520 nm); almost no hit is shown here; active = well fitted activation curve with a large enough effect; inconclusive = small, poorly fitted or top-dose-only effect;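 also: potency is read from the fitted curve at half-maximal effect; 0% is about no effect; scaled to a free AFC standard on each plate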
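Compound autofluorescence profiled at 405 nm ex/520 nm em during kinetic caspase 1 run (50 nM enzyme, 5 uM Ac-WEHD-AFC, HEPES pH 7.5, 10 mM DTT). Titration up to 57 uM; baseline from regression intercept, normalized to AFC standard curve.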
The depositor's hits bear a star; & = joins results of further samples; [ ] = remark or other dose.

For COc1cc(N2C(=O)CSC23C(=O)Nc2ccccc23)cc(OC)c1OC (centres undefined) the results were A647 fluor 2.41e-08, Resorufin fluor inactive and A488 fluor inactive.
Screening CN(C)c1ccc(/C=c2\sc3nc(-c4ccccc4)nn3c2=O)cc1 returned TSHR agonist -3.4%, A647 fluor 2.6e-09, Resorufin fluor inactive, A488 fluor inactive and AID923 1.3%.
O=C(c1ccc(-c2ccccc2)cc1)N1CCC(C(=O)N2CCCC2)CC1 was read as TSHR agonist inconclusive, A647 fluor 2.71e-08, Resorufin fluor inactive, A488 fluor inactive and AID923 -1.1%.
Screening C=Cc1ccccn1 returned TSHR agonist 6.4% and AID923 -1.4%.
For Cc1cccnc1-n1c(CCN2C(=O)c3ccccc3C2=O)nc2ccccc2c1=O the results were TSHR agonist 0.3% and AID923 1.6%.
`O=C(CSc1nnc(CNc2ccccc2)o1)N1CCCc2ccccc21` gave TSHR agonist -5.3%, A647 fluor 1e-09, Resorufin fluor inactive, A488 fluor inactive and AID923 0.0%.
`O=S(=O)(c1ccc(Br)cc1)N1CCN(S(=O)(=O)c2ccc(Br)cc2)CC1` gave TSHR agonist -4.2%[11.4 µM], A647 fluor 2.7e-09, Resorufin fluor inactive, A488 fluor inactive and AID923 0.7%[11.5 µM].
Screening CN(C)CCN(c1ccccn1)c1ccccn1 returned TSHR agonist 1.5%[11.4 µM], A647 fluor 3.61e-08, Resorufin fluor inactive, A488 fluor inactive and AID923 -1.0%[11.5 µM].
For CCOC(=O)C1CCCN(C(=O)C2CCCN(S(=O)(=O)c3ccc4c(c3)oc(=O)n4C)C2)C1 (centres undefined) the results were TSHR agonist 1.0% and AID923 1.4%.
`COc1cccc(OC)c1C(=O)NCCN1CCN(C(=O)c2c(OC)cccc2OC)CC1` gave TSHR agonist -2.8%, A647 fluor 1.9e-09, Resorufin fluor inactive, A488 fluor inactive and AID923 0.8%.
`CCOC(=O)c1cnn2c(C(F)(F)F)cc(-c3cn(C)nc3C)nc12` gave TSHR agonist -0.5%, A647 fluor 1e-09, Resorufin fluor inactive, A488 fluor inactive and AID923 14.3%.
`O=C(c1cccc(F)c1)N1CCC[C@@]2(CCN(c3ccncc3)C2)C1` gave TSHR agonist 4.0%, A647 fluor 1e-09, Resorufin fluor inactive, A488 fluor inactive and AID923 -0.1%.
For COc1cccc2c1C(=N)c1c(O)c3c(c(O)c1C2=O)C[C@](O)(C(C)=O)C[C@@H]3O[C@H]1C[C@H](N)[C@@H](O)[C@H](C)O1 the results were TSHR agonist 0.1%[11.4 µM], A647 fluor 2.01e-08, Resorufin fluor inactive, A488 fluor inactive and AID923 -1.0%[11.5 µM].
Cc1ccc(S(=O)(=O)NCCCNS(C)(=O)=O)cc1 was read as TSHR agonist 1.3%, A647 fluor 2.09e-08, Resorufin fluor inactive, A488 fluor inactive and AID923 0.9%.
O=C(Nc1ccc2oc(-c3ccccc3)nc2c1)c1ccncc1 was read as TSHR agonist inconclusive and AID923 -2.5%.
For CCC(Sc1ccc2nnc(-c3ccc(F)cc3)n2n1)C(=O)OC (centres undefined) the results were TSHR agonist inconclusive, A647 fluor 6.7e-09, Resorufin fluor inactive, A488 fluor inactive and AID923 -0.3%.
For COc1ccc(Cl)cc1NC(=O)c1oc(C)nc1C the results were TSHR agonist inconclusive, A647 fluor 2.69e-08, Resorufin fluor inactive, A488 fluor inactive and AID923 -0.1%.
`CCCCP(=O)(CCCC)Cc1ccccc1O` gave TSHR agonist inconclusive and AID923 1.3%.
For CSc1ncnc2c1ncn2CC(=O)[C@H]1CC[C@H]2[C@H]3CCC4=CC(=O)CC[C@@]4(C)[C@@H]3CC[C@@]12C the results were TSHR agonist 9.9%[11.4 µM], A647 fluor 1e-09, Resorufin fluor inactive, A488 fluor inactive and AID923 -2.7%[11.5 µM].
For Cc1ccc(C(=O)C2CCN(CC(=O)NC3CCCCC3)CC2)cc1 the results were TSHR agonist inconclusive, A647 fluor 1e-09, Resorufin fluor inactive, A488 fluor inactive and AID923 1.1%.
OCCN(Cc1ccccc1)Cc1cccc(C(F)(F)F)c1 was read as TSHR agonist 22.8%, A647 fluor 1.23e-08, Resorufin fluor inactive, A488 fluor inactive and AID923 -1.1%.
`Cc1sc2c(c1C)CN(C1CC(C)(C)NC(C)(C)C1)CN2C(=O)c1ccco1` gave TSHR agonist -5.3%, A647 fluor 1e-09, Resorufin fluor inactive, A488 fluor inactive and AID923 8.6%.
Screening CC(=O)c1ccc(OCCCC(=O)OCc2nnc(-c3ccc(Cl)cc3)o2)cc1 returned TSHR agonist -1.1%, A647 fluor 1e-09, Resorufin fluor inactive, A488 fluor inactive and AID923 0.2%.
Screening O=C(NC1CCCCC1)/C(=N\O)c1ccccn1 returned TSHR agonist -1.6%, A647 fluor 2.6e-09, Resorufin fluor inactive, A488 fluor inactive and AID923 -1.0%.
For CC1CCCCN1CCNS(=O)(=O)c1ccc2c(c1)oc(=O)n2C (centres undefined) the results were TSHR agonist 1.3%, A647 fluor 2.98e-08, Resorufin fluor inactive, A488 fluor inactive and AID923 -1.4%.
`COc1cccc(NC(=O)c2ccccc2-c2nc(-c3cccc(C)c3)no2)c1` gave TSHR agonist inconclusive, A647 fluor 4.4e-09, Resorufin fluor inactive, A488 fluor inactive and AID923 -1.7%.
`CCC(C)c1ccccc1O` (centres undefined) gave TSHR agonist inconclusive and AID923 -0.5%&2.9%.
Screening Cc1noc(/C=C/N(C)C)c1S(=O)(=O)N1CCCC(C(=O)NCc2ccc(F)cc2)C1 (centres undefined) returned TSHR agonist -7.2% and AID923 3.3%.
Screening Cc1cc(NC(=O)CN2CCCCC2C)nc2c1c(=O)oc1ccccc12 (centres undefined) returned TSHR agonist -5.5% and AID923 -2.5%.
Screening Cc1ccc(NC(=O)C(C)N2CCOCC2)c(C(=O)c2ccccc2)c1 (centres undefined) returned TSHR agonist 21.6% and AID923 1.6%.
Screening COc1cccc2cc(-c3nnc(SCC(=O)NCc4ccccc4)n3C)oc12 returned TSHR agonist 0.5%, A647 fluor 7.2e-09, Resorufin fluor inactive, A488 fluor inactive and AID923 -0.8%.
`Cc1nc2sc(C)c(C)c2c(=O)o1` gave A647 fluor 2.9e-09, Resorufin fluor inactive and A488 fluor inactive.
Screening Cc1onc(-c2c(Cl)cccc2Cl)c1C(=O)NCCN1CCOCC1 returned TSHR agonist inconclusive, A647 fluor 6.1e-09, Resorufin fluor inactive, A488 fluor inactive and AID923 2.0%.
For CC1(C)Cc2c(C#N)c(N3CCOCC3)nc(Cc3ccccc3)c2CO1 the results were A647 fluor 4.94e-08, Resorufin fluor inactive and A488 fluor inactive.
Screening O=C(Nc1ccncc1)c1cc2ccccc2oc1=O returned TSHR agonist -6.2%, A647 fluor 2.7e-09, Resorufin fluor inactive, A488 fluor inactive and AID923 -1.2%.
Screening Clc1ccc(-n2ncc3c(NCC4CCCO4)ncnc32)cc1 (centres undefined) returned TSHR agonist inconclusive and AID923 -4.5%.
For COC(=O)N1[C@H](C)C=C[C@]1(Cc1ccccc1)C(=O)NCc1ccc(C)o1 the results were TSHR agonist 3.1% and AID923 -1.4%.
Cc1cc(C(=O)Nc2nnc(C3CCCCC3)s2)cs1 was read as TSHR agonist 1.9% and AID923 5.6%.
COCCCNC(=O)C1CCN(C(=O)Nc2ccc(Cl)cc2)CC1 was read as TSHR agonist 0.5%, A647 fluor 1.77e-08, Resorufin fluor inactive, A488 fluor inactive and AID923 -0.2%.
Cc1ccc(N(CC(=O)NCc2cccs2)S(=O)(=O)c2cccs2)cc1 was read as TSHR agonist inconclusive, A647 fluor 1.57e-08, Resorufin fluor inactive, A488 fluor inactive and AID923 -1.4%.
`COc1ccc(NC2c3ccccc3C(=O)N2Cc2ccco2)cc1OC` (centres undefined) gave TSHR agonist 8.7% and AID923 2.6%.
For O=C(CN(Cc1ccccc1)C(=O)CCC(=O)Nc1nccs1)NCc1ccco1 the results were TSHR agonist 3.7%, A647 fluor 3.79e-08, Resorufin fluor inactive, A488 fluor inactive and AID923 -0.1%.
Screening O=C(Nc1ccc(F)cc1)c1cccnc1N1CCOCC1 returned TSHR agonist -2.9%, A647 fluor 1e-09, Resorufin fluor inactive, A488 fluor inactive and AID923 -0.2%.
`COc1cccc(C2N(c3ccccn3)C(=O)C3CCCN32)c1OC` (centres undefined) gave TSHR agonist 2.3%, A647 fluor 5.6e-09, Resorufin fluor inactive, A488 fluor inactive and AID923 -2.0%.
Screening Cn1c(=NC(=O)CSCC(=O)N2CCCC2)sc2ccccc21 returned TSHR agonist 0.3%, A647 fluor 3.09e-08, Resorufin fluor inactive, A488 fluor inactive and AID923 0.5%.
Screening O=C(CSc1nnc(Cc2ccccc2)n1Cc1ccco1)NC1CCCC1 returned TSHR agonist inconclusive, A647 fluor 2.13e-08, Resorufin fluor inactive, A488 fluor inactive and AID923 1.9%.
`O=C(Nc1ccccc1)N(CCc1ccncc1)C1CCCCC1` gave TSHR agonist 21.5% and AID923 0.5%.
`CC(C)Sc1nc2c(c(=O)[nH]c(=O)n2C)n1CCc1ccccc1` gave A647 fluor 1e-09, Resorufin fluor inactive, A488 fluor inactive and AID923 1.0%.
For O=P(c1ccccc1)(c1ccccc1)C1CCCO1 (centres undefined) the results were TSHR agonist 7.2% and AID923 0.5%.
`Cc1c(/N=C/c2ccco2)n(Cc2ccccc2)c2ccccc12` gave TSHR agonist inconclusive and AID923 1.4%.

Next part; it opens with the two that closed the last part.
For O=P(c1ccccc1)(c1ccccc1)C1CCCO1 (centres undefined) the results were TSHR agonist 7.2% and AID923 0.5%.
`Cc1c(/N=C/c2ccco2)n(Cc2ccccc2)c2ccccc12` gave TSHR agonist inconclusive and AID923 1.4%.
Screening Cc1ccc(-c2cc(C(=O)N3CCOCC3)c3ccccc3n2)cc1 returned TSHR agonist 25.1µM*, A647 fluor 1e-09, Resorufin fluor inactive, A488 fluor inactive and AID923 1.0%.
For COc1ccc(C(=O)N2CCC[C@@]3(CCN(C)C3)C2)cc1 the results were TSHR agonist 10.6%, A647 fluor 2e-09, Resorufin fluor inactive, A488 fluor inactive and AID923 2.8%.
CCCC(=O)NCCCc1nc2ccccc2n1C(C)C was read as TSHR agonist 2.4% and AID923 0.8%.
For Cc1ccc(C)c(NC(=O)CSc2nnc(CCCCCNC(=O)OC(C)(C)C)o2)c1 the results were TSHR agonist inconclusive, A647 fluor 9e-09, Resorufin fluor inactive, A488 fluor inactive and AID923 -0.8%.
`O=C(Nc1ccccc1Cl)N1CCN(c2ccc3nnc(-c4ccccc4)n3n2)CC1` gave TSHR agonist -0.9% and AID923 1.5%.
Cc1ccc(CN2C(=O)CCC2C(=O)N2CCN(c3ccc(F)cc3)CC2)cc1 (centres undefined) was read as TSHR agonist -1.9%, A647 fluor 1e-09, Resorufin fluor inactive, A488 fluor inactive and AID923 0.1%.
Screening COc1ccc(Cl)cc1NC(=O)CN1C(=O)CSC1=O returned TSHR agonist 2.1%, A647 fluor 1e-09, Resorufin fluor inactive, A488 fluor inactive and AID923 0.2%.
Screening C[C@H](NC(=O)Nc1cccc(C(F)(F)F)c1)C(=O)O returned TSHR agonist 11.2%, A647 fluor 1.84e-08, Resorufin fluor inactive, A488 fluor inactive and AID923 3.1%.
CCOC(=O)N1CCN(C(=O)CSc2nnc(COc3ccccc3)o2)CC1 was read as TSHR agonist 1.6% and AID923 -2.3%.
Cc1ccccc1OC(=O)CCC(=O)OCCCC(F)(F)C(F)(F)F was read as TSHR agonist 6.8% and AID923 0.6%.

From PubChem

These rows are one share of the data; count on the stated rates, not on these rows.
